Screening data from PubChem BioAssay.
Ba CapD inh: blocks the Bacillus anthracis CapD enzyme. purified CapD enzyme, fluorescence intensity read-out; hits give low values; some hits fall short of the stated cut. AID 492967. z-score (no concentration beside the values). actives 0.23% (n = 140,000);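 active means z-score under -4 in either of two replicates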;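 further: stock transfer was 100 nL into about 40 µL; score is relative to mean and spread of the plate; one replicate is shown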
AID504770: growth inhibitors of E. coli YBA685 in a screen for V. cholerae RctB (chromosome II replication) inhibitors; z-score (no concentration beside the values); actives 0.27% (n = 130,000); E. coli YBA685 rctB-dependent plasmid, OD600 growth, 3 h; hits give low values; AID 504770;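 active means z-score under -2 on both plates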;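 further: wells of about 30 µL received 100 nL stock; score is relative to mean and SD of the test wells; the first replicate is given; strong numbers were not always called active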
Starred values were filed as active, the others as inactive; i = inactive; · = not tested or not shown.

Each structure is followed by: Ba CapD inh	AID504770
COCCn1c(=O)c2ccccc2c2ccccc2c1=O
 : 0.51	0.7
CCCc1nc(Nc2nc3ccccc3o2)ncc1C(=O)OCC
 : -1	1.8
CCNc1nc(NC(C)C)nc(Oc2ccc(OCCOc3ccccc3)nn2)n1
 : -0.49	·
Cc1sc2nc3n(c(=O)c2c1-c1ccccc1)CCC3
 : ·	-2.8
CC(=O)CC1C(C#N)=C(N(C)C)N(c2ccc([N+](=O)[O-])cc2)c2c1n(C)c1ccccc21 (centres undefined)
 : -0.54	·
CC(=O)N1CCc2cc(Br)ccc21
 : -0.055	·
CS(=O)c1nc2ccccc2s1 (centres undefined)
 : -0.78	1.1
Cc1cc(C)c(S(=O)(=O)NCCO)c(C)c1
 : -0.15	1.6
O=C(NCc1ccccc1)c1cc(C2CC2)on1
 : -0.6	-0.9
O=S(=O)(O)c1cc(O)ccc1O
 : -0.51	·
Cc1cc2cc(CNC(=O)c3ccccc3)ccc2n1C
 : -0.11	0.9
CCOc1ccccc1C(=O)NC1CC2CCCC(C1)N2C1CC1 (centres undefined)
 : ·	-0.6
Cc1cc(Nc2ccccc2)n[nH]1
 : -0.79	-0.15
C/C(=C\C(=O)c1ccc(C)o1)Nc1ccc(F)c(C)c1
 : -2.4	-0.75
Cc1cccc(NC(=O)N2CC3CC(C2)c2cccc(=O)n2C3)c1 (centres undefined)
 : -0.32	·
COc1cc(CN2CCC(NC(=O)c3ccccc3COC(=O)c3ccccc3)C2)cc2c1OCO2 (centres undefined)
 : -0.31	·
CS(=O)(=O)N1c2cccc3cccc(c23)S1(=O)=O
 : ·	-0.8
CC(C)(C)n1nnnc1C(c1ccccn1)N1CCC(Cc2ccccc2)CC1 (centres undefined)
 : ·	0.2
Cc1nn(C2CCS(=O)(=O)C2)c(Cl)c1/C=C/C(=O)OCC(N)=O (centres undefined)
 : ·	-0.4
CCc1nc(SCS(=O)(=O)c2ccc(C)cc2)c(C#N)c2c1CCCC2
 : 0.97	-0.2
COCc1cc(=O)[nH]c2c1c(-c1cccs1)nn2C
 : 3.5	-0.4
O=C(Nc1ccc(S(=O)(=O)Nc2nccs2)cc1)c1cc(-c2ccccc2)nc2ccccc12
 : 6.2	0.15
CC(COc1ccc2c(c1)OCO2)NC(=O)Cn1nnc2ccccc2c1=O (centres undefined)
 : 0.26	0.45
COc1ccc2c(c1)-c1cc(Cl)ccc1S(=O)(=O)N2S(=O)(=O)c1ccc2ccccc2c1
 : -0.45	·
O=C1NC(c2ccc([N+](=O)[O-])s2)Nc2ccccc21 (centres undefined)
 : -0.34	·
Cc1sc2nc3ccc(NCc4ccco4)nn3c(=O)c2c1C
 : ·	0.05
CC(C(=O)N1CCC2(CC1)OCCO2)C1Sc2ccccc2NC1=O (centres undefined)
 : ·	-0.75
C=CCOC(=O)C1=C(C)OC(N)=C(C#N)C12C(=O)Nc1ccc(C)cc12 (centres undefined)
 : -0.39	·
CCOC(=O)C1=C(C)N=c2s/c(=C\c3ccc(O)c(OCC)c3)c(=O)n2C1c1ccc(OC)c(OC)c1 (centres undefined)
 : -0.55	·
Cn1/c(=N/NC(=S)NC(=O)C2CC2)sc2ccccc21
 : ·	0.5

Looked up one by one from the entries so far, 2 records:
Each structure is followed by: Ba CapD inh	AID504770
CC(=O)N1CCc2cc(Br)ccc21
 : -0.055	·
O=C(NCc1ccccc1)c1cc(C2CC2)on1
 : -0.6	-0.9

The list continues:
Each structure is followed by: Ba CapD inh	AID504770
O=C(NN=C1CCCC1)c1ccc(Cl)cc1
 : 0.67	-0.55
CC(=O)NC(C)c1nc2ccccc2n1C(C)C (centres undefined)
 : 0.53	-0.4
O=C(NCCN1CCN(C(=O)c2ccc(Cl)cc2)CC1)c1ccc(Cl)cc1
 : -0.33	·
O=C1/C(=C\c2ccc(-c3cccc(Cl)c3)o2)Sc2ccccc21
 : 1.9	·
O=C1S/C(=C\c2cc(Br)ccc2O)C(=O)N1Cc1ccc(F)cc1
 : 0.18	·
COc1ccc2c(c1)SC1=NC(c3ccccc3)(C(F)(F)F)NC(=O)N12 (centres undefined)
 : 7.5	-0.45
O=C(CN1C(=O)CCC1=O)Nc1ccc(OC(F)F)cc1
 : ·	0.15
CCN(CC)c1cc(Nc2ccc(-c3ccccc3)cc2)c([N+](=O)[O-])c2nonc12
 : -0.47	·
Cc1ccccc1Nc1coc2ccc3c(C)cc(=O)oc3c12
 : 1.7	·
CC(=O)c1ccc(OCC(O)CN2CCCN(C(=O)c3cccs3)CC2)cc1 (centres undefined)
 : 0.24	·
CCOC(=O)/C=C(\C)Nc1ccc(Cl)cc1
 : -0.89	0.9
Cc1nn2c(nc1=O)NN=C(c1ccccc1)C2
 : -0.21	0.4
COc1ccc2cc(S(=O)(=O)Nc3ccccn3)ccc2c1
 : ·	-0.75
NS(=O)(=O)c1ccc2nc(NC(=O)C3CC3)sc2c1
 : i	-0.25
OC(CNCc1ccc2c(c1)OCO2)CSc1ccccc1 (centres undefined)
 : -0.12	0.95
N#C/C(=C\c1ccc2c(c1)OCO2)c1ccccn1
 : -0.11	·
Cc1ccccc1OCC(=O)NC(C)(C)C
 : 0.055	-1.2
COc1cc(C2C(C(=O)Nc3ccc(Br)cn3)=C(C)NC3=C2C(=O)CC(C)(C)C3)ccc1O (centres undefined)
 : 13	·
O=C(Nc1ccccc1Cl)c1csc2c1CCCC2
 : -0.79	-0.2
COC(=O)C1=CN(Cc2ccc(OC)c(OC)c2)C=C(C(=O)OC)C1c1ccc(Br)cc1
 : 57	·
Oc1ccc(O)c(Cc2nc3ccccc3[nH]2)c1
 : -0.42	-0.25
COc1ccccc1C1CCN(C(=O)c2c(-c3c(Cl)cccc3Cl)noc2C)CC1
 : 0.46	·
FC(F)(F)C1=CC=NCCN1
 : -4.4*	-0.75
COc1ccc(C)cc1NC(=O)C(=S)NCc1ccco1
 : -0.57	2.1
Cc1nn(C(=O)c2cc3c(s2)CCCC3)c(C)c1Sc1ccc(Br)cc1
 : -0.22	-0.9
CCCN(C(=O)Cn1ncc2c1-c1ccccc1OC2)c1ccc(Cl)c(Cl)c1
 : 0.74	-0.65
CCCN(CCC)C(=O)Cn1c(SCc2cccc(F)c2)nc2ccncc21
 : -2	0.25
CN(C)S(=O)(=O)c1ccc2nnn(OCC(=O)NCCc3ccc(Cl)cc3)c2c1
 : ·	-0.5
COC(=O)c1ccc(N2CCN(c3ncccc3[N+](=O)[O-])CC2)c([N+](=O)[O-])c1
 : -0.2	·
CCOC(=O)C1=NN(c2ccccc2)C(=C2C(=O)c3ccccc3C2=O)C1c1cccs1 (centres undefined)
 : -0.26	0
O=C(Cn1cnc2sccc2c1=O)NCCC1=CCCCC1
 : ·	2
CN(C)/C=C/C(=C\C(=O)C(F)(F)F)Nc1ccc(C(F)(F)F)cc1
 : 0.01	·
O=C1CC(c2ccco2)CC(O)=C1C=Nc1cc(Cl)ccc1Cl (centres undefined)
 : -0.015	-1.1
S=C(Nc1cccnc1)N1CCCCC1
 : -0.49	1.9
O=C(c1ccccc1)c1nc2ccccc2s1
 : -1.1	-1.3
O=C(OCCSc1ccc(C(F)(F)F)cn1)N1CCC2(CC1)C(=O)NCN2c1ccccc1
 : -0.59	·
CCC(CO)NC1CC(C)N(C)CC1C (centres undefined)
 : ·	-0.2
CC(O)(CS(=O)(=O)Cc1ccc(Cl)cc1)c1ccc(Cl)c(Cl)c1 (centres undefined)
 : -0.17	·
Cc1ccc2c(c1)C(O)(C1COC(C)(C)CC1=O)C(=O)N2 (centres undefined)
 : 0.085	·
Nc1ccc2c(c1)S(=O)(=O)c1cc(N)ccc1O2
 : 1.7	1.3
O=C(c1ccc(CSc2nc3ccncc3n2Cc2ccc(F)cc2)cc1)N1CCCCC1
 : 1	-0.55
O=S(=O)(c1ccc(Cc2ccc(S(=O)(=O)N3CCCCC3)cc2)cc1)N1CCCCC1
 : 1.1	-0.9
Cn1nc(C(F)(F)F)c(-c2ccccc2)c1NC(=O)CSCC(=O)O
 : 0.17	-1.1
CCOCC(=O)Nc1c(C(=O)Nc2ccccc2F)oc2ccccc12
 : 0.94	0.95
COc1ccc(-c2nc(N3CCCC3)[nH]c(=O)c2C#N)cc1
 : 0.12	0
CCOC(=O)c1cc(C(C)C)sc1NC(=O)COC(=O)c1ccc(C)o1
 : ·	1.1
Cc1ccc(NC(=O)CSC2=NCCN2)cc1
 : -0.7	1.9
CC(=O)Nc1ccc(C)c(N=Cc2ccc(Cl)c(Cl)c2)c1
 : -0.11	·
CCOC(=O)c1sc2ncn(CC(=O)Nc3ccccc3Cl)c(=O)c2c1C
 : 0.075	·
COc1ccc(CNCc2cn3c(-c4ccc(Br)cc4)nnc3s2)cc1
 : -0.39	0.75
COc1ccc(C(=O)N2CCN(CCCc3c[nH]c4ccc(F)cc34)CC2)cc1
 : 0.34	-0.05
CN1CC2(c3ccccc3)CN(C)CC(c3ccccc3)(C1)C2=O
 : 0.24	2
CCN1/C(=C\C=C\c2n(CC)c3cc(Cl)c(Cl)cc3[n+]2CCCS(=O)(=O)[O-])N(CCCS(=O)(=O)O)c2cc(Cl)c(Cl)cc21
 : -1.3	·
c1ccc2c3c([nH]c2c1)CCC3
 : 4.4	-0.3
Cc1cc(/C=C/C(=O)Nc2nccs2)c(C)n1-c1ccccc1
 : ·	-0.85
N#CCOC(=O)c1ccc(Br)o1
 : ·	-0.9
CCCc1[nH]n(-c2ccc(F)cc2)c(=O)c1C=NCCN1CCN(C(=O)c2ccccc2)CC1
 : -0.85	·
CCOCC(=O)N1CCC(C(=O)OCC)CC1
 : -0.3	-1.1
CCOC(=O)CC(=O)NNC(=O)CCc1c[nH]c2ccccc12
 : -0.4	·
Nc1nonc1-c1noc(CCCN2C(=O)c3ccccc3C2=O)n1
 : 0.63	-0.1

Carrying on:
canonical_smiles | Ba CapD inh | AID504770
Cc1cc(NC(NC(=O)N(C)C)(C(F)(F)F)C(F)(F)F)no1 | 0.48 | 1.8
O=C(O)C(O)C(O)c1nc2ccccc2[nH]1 (centres undefined) | 0.06 | -0.45
O=C1CC(c2c[nH]c3ccccc23)C(=O)N1c1ccc(Cl)cc1Cl (centres undefined) | -0.94 | ·
COc1ccccc1C(=O)c1ccccc1 | -0.35 | ·
CCOc1ccc(NC(=O)CSc2nc3ccccc3n2S(=O)(=O)c2ccc(NC(C)=O)c(Cl)c2)cc1 | 0.65 | ·
Cc1cc(N2CCCCC2C)n2ncnc2n1 (centres undefined) | · | -0.5
Cc1nc2c(cnn2-c2ccccc2)c(=O)[nH]1 | 0.49 | -0.15
Cc1nc(-c2cccnc2)cs1 | -1.3 | -0.25
CN(C)C=C1C(=O)N(C2CCCCC2)C(=O)N(C2CCCCC2)C1=O | -0.24 | -0.3
CCN(CC)c1ccc(C2CC(=O)C3=C(C2)Nc2ccccc2N(C(C)=O)C3c2ccco2)cc1 (centres undefined) | -0.32 | ·
Cc1cccc(C(CC(=O)N2CCCC2)n2cccc2)c1 (centres undefined) | -0.57 | 0.4
COc1ccc(-c2cc(O)cc3sc(=O)oc23)cc1 | · | -0.4
O=C1CCN(S(=O)(=O)c2ccc(Cl)c(Cl)c2)CC1 | · | -0.4
NCc1ccc(C(F)(F)F)cc1 | · | -0.3
CS(=O)(=O)c1cc(C#N)c(N2CCN(C(=O)c3ccccc3C(F)(F)F)CC2)nc1-c1ccc(Cl)cc1 | 2.1 | ·
CC(C)CCNC(=O)CN1C(=O)C2CC=CCC2C1=O (centres undefined) | · | -1.6
N#Cc1ccc(C2NC(=O)NC3=C2C(=O)OC3)cc1 (centres undefined) | · | -0.95
CC(=O)Nc1ccc(N=Cc2ccc(N3CCOCC3)cc2)cc1 | -0.59 | 0.6
CCN(CC)c1ccc2cc(C(=O)Nc3cccc(OC)c3)c(=O)oc2c1 | · | -0.25
COc1cccc(NC(=O)COC(=O)CCC2CCCC2)c1 | · | -1

Ordered by length of the SMILES (highest first): 6 of the compounds above.
canonical_smiles | Ba CapD inh | AID504770
CN(C)C=C1C(=O)N(C2CCCCC2)C(=O)N(C2CCCCC2)C1=O | -0.24 | -0.3
COc1cccc(NC(=O)COC(=O)CCC2CCCC2)c1 | · | -1
COc1ccc(-c2cc(O)cc3sc(=O)oc23)cc1 | · | -0.4
O=C(O)C(O)C(O)c1nc2ccccc2[nH]1 (centres undefined) | 0.06 | -0.45
NCc1ccc(C(F)(F)F)cc1 | · | -0.3
Cc1nc(-c2cccnc2)cs1 | -1.3 | -0.25

Additional records follow.
canonical_smiles | Ba CapD inh | AID504770
CC(OC(=O)CCN1C(=O)c2ccccc2C1=O)c1ccccc1 (centres undefined) | -0.02 | 2
COc1ccc(N2CCN(C(=O)c3ccc4c(=O)n(Cc5ccc6c(c5)OCO6)c(=S)[nH]c4c3)CC2)cc1 | -0.11 | ·
CC(=NCc1ccco1)C1=C(O)c2ccccc2C1=O | -2 | -0.6
O=C(Nc1nc2ccc(Oc3ccccc3)cc2s1)c1ccco1 | · | -0.25
O=C(Nc1cccc(F)c1)[C@H](Cc1ccccc1)N1Cc2ccccc2C1=O | 0.26 | -0.55
C/C(=N\NC(=O)Cc1ccc(F)cc1)c1ccc(O)cc1 | -0.61 | 0.7
O=C(NCc1cccc(C(F)(F)F)c1)C1Cc2c(ccc3ccccc23)O1 (centres undefined) | 12 | ·
O=C(Cc1ncc(C(F)(F)F)cc1Cl)NCC1CCCO1 (centres undefined) | 0.11 | 1.4
CCCN1C/C(=C/c2ccc(OC)cc2)C(=O)/C(=C/c2ccc(OC)cc2)C1 | 0.22 | -1.1
c1csc(-c2cnc3ccccc3n2)c1 | 74 | ·
O=C(CN1CCOc2ccccc21)NCc1ccc(Cl)cc1 | 0.55 | 0.1
CNC(=O)CSc1nc2ccccc2c(=O)n1C1CCCCC1 | -0.31 | -1.4
N#Cc1c(SCc2ccccc2F)nc(C(F)(F)F)c2c1CCC2 | 0.79 | -0.3
CSc1ccccc1NC(=O)CN(C)Cc1nnc(-c2ccccc2)o1 | · | -0.3

Random draw from the library; any-hit rate near 0.37%.
